Bioassay records: PubChem, National Center for Advancing Translational Sciences (NCATS)
D2 ag: activates the human D2 dopamine receptor. DiscoveRx PathHunter D2 beta-arrestin, luminescence, 90 min; 100% = 57 uM dopamine signal. activation, % (test concentration not listed). P14416. AID 624465. actives 0.084% (n = 360,000); in the data active = activation above about 40%; inconclusive = about 15% to 40%; inactive = below about 15%; further: compound concentration not given in the record; the text of the record calls up to 30% inactive
Target sequence (P14416 whole entry, looked up): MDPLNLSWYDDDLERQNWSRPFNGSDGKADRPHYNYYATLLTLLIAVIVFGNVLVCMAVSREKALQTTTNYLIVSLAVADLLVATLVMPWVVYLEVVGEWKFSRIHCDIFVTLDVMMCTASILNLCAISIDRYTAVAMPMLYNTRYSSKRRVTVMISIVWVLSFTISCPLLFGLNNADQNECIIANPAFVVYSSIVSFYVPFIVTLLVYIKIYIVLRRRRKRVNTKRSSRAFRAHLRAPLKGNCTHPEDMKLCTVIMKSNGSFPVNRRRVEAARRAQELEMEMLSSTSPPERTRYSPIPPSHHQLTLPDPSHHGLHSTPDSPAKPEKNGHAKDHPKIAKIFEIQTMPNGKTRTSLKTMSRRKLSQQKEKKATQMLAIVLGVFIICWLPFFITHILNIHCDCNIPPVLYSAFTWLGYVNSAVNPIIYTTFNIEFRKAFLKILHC
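DiscoveRx PathHunter D2 beta-arrestin cells (2,100/well) attached overnight, then compound-stimulated 90 min at 37 C in HBSS/10 mM HEPES/0.1% Tween-20 buffer; beta-galactosidase complementation read by luminescence after 1 h at ambient temperature. Dopamine 57 uM final (EC100) as control.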
TRPV1 potentiator: enhances activation of the human vanilloid receptor TRPV1. potentiation, % at 8.33 µM. actives 0.02% (n = 320,000). TRPV1-expressing cells, Fluo-8 calcium influx, capsaicin EC20 potentiation; host cell line not named in the record; control for the full effect not named in the record; active means potentiation above 80%; inconclusive means 30% to 80%; inactive means below 30%; further: 0% is about no effect
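TRPV1-expressing cells were cultured overnight at 35.5C and loaded with Fluo-8 calcium dye for 40 to 90 min at room temperature. After a 10 s baseline, compound was added and calcium influx was read kinetically for 3 min (ex 480/em 520 nm).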
Sfp PPTase inh: Sfp phosphopantetheinyl transferase inhibition; Q9F4F7; Potency, µM, without a hit: max response, negative = inhibition, most hits filed as inhibitors; actives 3.5% (n = 310,000); Biochemical Sfp PPTase activity, qHTS; active means well fitted inhibition curve with a large enough effect; inconclusive means small, poorly fitted or top-dose-only effect, or another doubt; inactive means no such curve, though single readings can be large or run the other way;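 further: the enzyme is Sfp with the accession as filed and its product quenches rhodamine fluorescence; potency means the concentration at half of the fitted maximal effect; 0% = enzyme reaction without inhibitor and -100% = no enzyme wells; top concentration of the series not given in the record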
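Compounds were incubated with enzyme (final 15 nM) for 15 min at room temperature before substrate addition started the reaction. Fluorescence at 525 nm excitation, 598 nm emission was recorded immediately and after 30 minutes.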
CtBP-E1A blk: blocks the CtBP interaction with E1A; activity change, % (no concentration beside the values); AID 651724; AlphaScreen GST-E1A/His-CtBP binding, 1536-well; stronger effect = lower value; control for the full effect not named in the record; actives 0.49% (n = 340,000); in the data active means activity change below about -65%; inconclusive means about -30% to -65%; inactive means above about -30%; further: on the % scale 0 is the no-effect control and ±100 the full control effect; compound concentration not given in the record
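AlphaScreen with 125 nM GST-E1A and 125 nM His-CtBP (5X stocks) in Tris pH 8.0, 300 mM NaCl, BSA, Tween 20, TCEP. Compounds preincubated 2 h at 37 deg C, then glutathione donor/nickel acceptor beads added for 1 h at 37 deg C in dark.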
PINK1 modulator: PINK1 expression modulation. PINK1 immunofluorescence, high-content cytometry, 24 h. actives 0.2% (n = 410,000). Potency, µM (top dose mostly 76.6 µM), inactives show at the top dose activation (PINK1 increase), actives largely listed as activators; active = well fitted activation curve with a large enough effect; inconclusive = small, poorly fitted or top-dose-only effect; inactive = flat fitted curve, though single readings scatter; cell line not stated here;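 further: potency means the concentration at half of the fitted maximal effect; % of control where 0% means no effect; nearly all actives have a fitted effect of over 65% in size; a mitochondrial uncoupler was the plate control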
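Measures PINK1 amount and localization on or inside mitochondria by immunofluorescence. Stable cells get compounds at 5 concentrations for 24 hours before fixation and staining; CCCP controls included.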
Six1-Eya2 inh: Six1/Eya2 interaction inhibition; AlphaScreen GST-Six1/His-Eya2 binding, biochemical; stronger effect = lower value; control for the full effect not named in the record; Q15475+O00167; activity change, % (no concentration beside the values); actives 0.56% (n = 360,000); in the data active = activity change below about -65%; inconclusive = about -30% to -65%; inactive = above about -30%; further: on the % scale 0 is the no-effect control and ±100 the full control effect; compound concentration not given in the record
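AlphaScreen luminescence read after one hour at 37 °C in darkness. Pin-transferred compounds met GST-Six1 and His-Eya2 protein (5X stock 250 nM/500 nM) plus glutathione donor and Ni-chelate acceptor beads (5X, 50 ug/mL).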
D2 PAM: positive allosteric modulators of human D2 dopamine receptor | actives 0.23% (n = 360,000) | P14416 | potentiation, % (no concentration beside the values) | DiscoveRx D2 beta-arrestin cells, luminescence, 90 min; 100% = 57 uM dopamine signal; active = potentiation of 50% or more; inconclusive = 30% to 50%; inactive = 30% or less;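 further: compound concentration not given in the record; tested on top of an EC20 dose of dopamine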
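D2 cells co-treated with compound plus 50 nM dopamine (EC20) for 90 min at 37 deg C to detect potentiation. Beta-arrestin recruitment was read as enzyme-fragment luminescence after 1 h at ambient temperature. Full response was set by 57 uM dopamine.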
* hit, by the source's call; ? = inconclusive; . = not tested or not shown; [ ] = dose if it differs, or a comment.

SMILES	D2 ag	TRPV1 potentiator	Sfp PPTase inh	CtBP-E1A blk	PINK1 modulator	Six1-Eya2 inh	D2 PAM
C=CCn1c(=O)[nH]c2nc3cc(N=CN(C)C)c(C)cc3nc2c1=O	-4.2	-6	50µM*	.	2.7%	-12	-11
COc1cccc(N(C(=O)c2snc(C(N)=O)c2N)C(C(=O)NCC2CCCO2)c2ccc3ncccc3c2)c1 (stereo not given)	-0.1	-1	9%	-1	1.9%	9	-5
CN1CCN(c2nc3ccccc3nc2C(C#N)C(=O)OC2CCCCC2)CC1 (stereo not given)	-3.2	9	0%	-13	-1.9%	-6	-5
CCN1CCN(c2nc(N)c([N+](=O)[O-])c(Nc3ccc(C)c(C)c3)n2)CC1	-4.8	-5	20%	-2	8.8%	4	-6
O=C(CSc1nnc(-c2ccncc2)n1Cc1ccco1)c1ccc(Cl)cc1	5.3	4	22µM*	-4	1.1%	1	-7
CSC1=NCCN1C(=O)c1c(-c2ccccc2Cl)noc1C	-2.1	0	17%	2	2.6%	3	-3
COCCNC(=O)Cn1cc2c(n1)CCC(C)C2 (stereo not given)	6.4	5	4%	7	4.2%	5	6
COP(=O)(OC)c1nc(-c2ccccc2)oc1NCc1ccccc1	-14	-7	9%	-2	-0.7%	-15	-3
COc1ccc(Br)cc1CNC(=O)C1CCN(S(=O)(=O)N2CCCCC2)CC1	0.3	2	-13%	10	.	-1	-18
O=C(CCc1ccccc1)NC(=S)Nc1ccccc1[N+](=O)[O-]	-5.3	-9	-22%	-20	4.0%	-16	-9
Cc1cc(NC(=O)C(C)SCC(=O)Nc2cc(Cl)ccc2N2CCN(C)CC2)no1 (stereo not given)	-4.9	4	.	-1	-0.7%	-5	-30
Cc1ccc(OCCCCN2CCCC(C)C2)c([N+](=O)[O-])c1 (stereo not given)	-1.2	-2	?	3	-1.5%	-4	-23

9 entries already listed, sorted by SMILES length, ascending:
SMILES	D2 ag	TRPV1 potentiator	Sfp PPTase inh	CtBP-E1A blk	PINK1 modulator	Six1-Eya2 inh	D2 PAM
COCCNC(=O)Cn1cc2c(n1)CCC(C)C2 (stereo not given)	6.4	5	4%	7	4.2%	5	6
CSC1=NCCN1C(=O)c1c(-c2ccccc2Cl)noc1C	-2.1	0	17%	2	2.6%	3	-3
COP(=O)(OC)c1nc(-c2ccccc2)oc1NCc1ccccc1	-14	-7	9%	-2	-0.7%	-15	-3
Cc1ccc(OCCCCN2CCCC(C)C2)c([N+](=O)[O-])c1 (stereo not given)	-1.2	-2	?	3	-1.5%	-4	-23
O=C(CCc1ccccc1)NC(=S)Nc1ccccc1[N+](=O)[O-]	-5.3	-9	-22%	-20	4.0%	-16	-9
CN1CCN(c2nc3ccccc3nc2C(C#N)C(=O)OC2CCCCC2)CC1 (stereo not given)	-3.2	9	0%	-13	-1.9%	-6	-5
COc1ccc(Br)cc1CNC(=O)C1CCN(S(=O)(=O)N2CCCCC2)CC1	0.3	2	-13%	10	.	-1	-18
Cc1cc(NC(=O)C(C)SCC(=O)Nc2cc(Cl)ccc2N2CCN(C)CC2)no1 (stereo not given)	-4.9	4	.	-1	-0.7%	-5	-30
CCN1CCN(c2nc(N)c([N+](=O)[O-])c(Nc3ccc(C)c(C)c3)n2)CC1	-4.8	-5	20%	-2	8.8%	4	-6

More records follow.
SMILES	D2 ag	TRPV1 potentiator	Sfp PPTase inh	CtBP-E1A blk	PINK1 modulator	Six1-Eya2 inh	D2 PAM
O=C(CSc1nc2ccccc2o1)N/N=C/c1ccco1	-11	11	8%	.	0.2%	-5	-5
COC(=O)c1cc(Br)c(N)cc1OC	-2.8	-5	17%	-11	-0.7%	6	-17
Cn1c(-c2ccc(F)cc2)cnc1SCC(=O)N1CCCCC1	-1.0	-23	-21%	-2	-0.2%	-1	-11
CCOC(=O)CSC1=N/C(=C\c2cccnc2)C(=O)N1c1ccc(OC)cc1	-2.5	23	5%	13	3.4%	-1	-26
COc1ccc(/C=N/Nc2cc(C)nc(NS(=O)(=O)c3ccc(C)cc3)n2)cc1	11	-8	9%	-11	-2.2%	-23	3
O=C(NCC1CCCO1)c1ccc(COc2ccccc2Br)cc1 (stereo not given)	-3.7	-5	-9%	3	0.5%	0	-10
CC(Sc1cnccn1)C(=O)O (stereo not given)	-5.6	-11	23%	-1	6.9%	-2	-5
CC(C)(C)NC(=O)NC(=O)CSc1nnc2ccccn12	-2.7	-12	-2%	-1	-0.1%	-1	-28
CC(=O)Nc1ccc(NC(=O)c2ccc3sc([C@H]4C[C@H](O)[C@@H](CO)O4)nc3c2)cc1	-2.7	.	.	-14	0.9%	-7	-1
Cc1cc(C)cc(NS(=O)(=O)c2ccc(-c3cnc(C4CC4)o3)cc2)c1	1.9	21	-15%	.	12%	-6	-11
CNS(=O)(=O)c1cccc(C(=O)OCC(=O)c2c(N)n(C)c(=O)n(C)c2=O)c1	3.3	-2	12%	-6	5.0%	-17	2
NC(=O)NC(=O)CC1S/C(=N/N=C2/NC(=O)CS2)NC1=O (stereo not given)	0.8	12	-29%	?	1.7%	-78*	-9
Cc1cc(OCC(=O)N2CCOCC2)ccc1NC(=O)c1ccccc1C	-3.4	-13	16%	2	1.5%	-1	-25
COc1ccc(S(=O)(=O)Cc2ccc(C(=O)NCCc3ccc(S(N)(=O)=O)cc3)o2)cc1	-0.5	.	15%	9	-0.9%	0	6
Cc1cc(OCC(=O)N(C)c2ccccc2)cc2c1C(=O)CC(C)(C)O2	-7.1	-6	5%	13	3.2%	-2	-2
Cc1ccccc1CSCCNC(=O)c1ccc(N(C)S(=O)(=O)c2ccccc2)cc1	1.1	-6	9%	35	-6.9%[38.3 µM]	13	-3
CC(=O)c1cccc(NC(=O)/C=C/c2ccc([N+](=O)[O-])s2)c1	6.2	-18	11%	28	18%	-3	-50
CCn1c(CNC(=O)c2ccccc2F)nnc1SCCOc1ccccc1	-4.0	3	15%	29	0.2%	9	-4
Cc1ccc(S(=O)(=O)CCC(=O)OCC(=O)c2c(N)n(CC(C)C)c(=O)n(C)c2=O)cc1	-0.2	10	21%	2	-0.6%	-8	-7
CC(=O)c1sc(NC(=O)CN2C(=O)C3CC=CCC3C2=O)nc1-c1ccccc1 (stereo not given)	-1.8	5	.	22	0.1%	-2	-4
Cc1cccc(N2CCN(C(=O)C3CCN(S(=O)(=O)N4CCOCC4)CC3)CC2)c1C	13	-5	-2%	.	-2.3%	1	-7
O=C(Cc1ccccc1F)NCC1(N2CCOCC2)CCCCC1	-0.8	14	9%	6	-1.8%	1	1
Cc1cc2ncn(C(=O)N3CCC(C)CC3)c2cc1C	-1.9	-2	20%	1	-1.1%	7	-18
COc1cc(C2Nc3ccc4ccccc4c3C3=C2C(=O)CC(C)(C)C3)ccc1OC(C)C(=O)O (stereo not given)	8.2	6	3%	-2	1.4%	7	1
N#Cc1cc(Sc2ccccn2)c(Sc2ccccn2)cc1C#N	0.0	1	-12%	-9	-2.1%[38.3 µM]	-2	2
Cn1cc(C(=O)N/N=C/C(Br)=C/c2ccccc2)ccc1=O	5.4	-26	-4%	.	2.2%	-27	-3
Cc1cccc(NC(=S)N(Cc2cccs2)Cc2cc3cc(C)cc(C)c3[nH]c2=O)c1	0.9	2	-9%	2	9.8%	4	-13
Cc1ccccc1NC1=NC(=S)N(c2ccccc2)C12CCOC(C)(C)C2 (stereo not given)	-2.2	-23	11%	0	.	8	1
CC1=CC(C)(C)N2C(=O)C3(NCCc4c3[nH]c3ccccc43)c3cc(C)cc1c32 (stereo not given)	1.9	11	-11%	-18	0.2%	-18	-4
Cc1ccc(-c2cc(C(=O)OCn3nnc4ccccc4c3=O)c3ccccc3n2)cc1	1.4	8	9%	15	?	-1	-10
CC(C)(C)c1ccc(C(=O)N2CCC3(CC2)NCCc2[nH]cnc23)cc1	-3.1	3	-8%	-11	1.6%	-3	-12
O=C(CN1CCN(c2ccc(O)cc2)CC1)NC(c1ccccc1)c1ccccc1	7.2	19	10µM*	-24	-1.0%	-14	0
CCOC(=O)c1c(NC(NC(C)=O)C(Cl)(Cl)Cl)sc(C(C)=O)c1C (stereo not given)	1.1	-2	7%	2	-0.1%	-4	-4
Cc1ccnc(NC(=S)NC(=O)/C=C/c2ccccc2)c1	-1.0	-5	1%	5	2.5%[38.3 µM]	-1	5
Cc1ccccc1/C=N\NC(=O)c1ccccc1-n1cccc1	2.0	-3	7%	0	-1.2%	-2	-36
COCCN(CCOC)S(=O)(=O)c1ccc(C(=O)Nc2nnc(C3CC3)o2)cc1	-6.2	?	-26%	-22	1.0%	-30	-10
COc1cc(C(c2c(C)[nH][nH]c2=O)c2c(C)[nH][nH]c2=O)ccc1OS(=O)(=O)c1ccccc1	-0.3	-9	-1%	-21	5.8%[38.3 µM]	-8	-3
OCCCNCc1ccc(Cl)cc1Cl	-2.6	3	8%	.	0.3%	0	-11
Cc1ccn2c(c1)nc(=S)n2C(=O)c1ccccc1	-0.4	-4	-17%	-5	1.1%	-4	-10
O=C(COC(=O)C1CCN(c2ccc(C(F)(F)F)cn2)CC1)c1ccccc1Cl	3.0	?	.	40	1.8%	29	-3
O=c1[nH]c2ccccc2nc1NCc1ccccc1	-2.7	-7	0%	-21	4.2%	-3	-2
COCCCNC(=O)CN1CCN(Cc2ccccc2Cl)C1=O	-7.0	.	9%	5	0.1%	5	-6
COc1cccc(C2/C(=C(/O)c3ccc4c(c3)OCO4)C(=O)C(=O)N2CCN2CCOCC2)c1 (stereo not given)	-4.3	1	11%	-2	0.2%	1	-7
C[C@@H]1CN([C@H](C)CO)S(=O)(=O)c2ccc(Br)cc2O[C@@H]1CN(C)C(=O)Nc1ccc(C(F)(F)F)cc1	2.1	.	.	22	?	0	1
CCN(CC(=O)NCc1cccs1)C(=O)/C=C/c1cccc(Br)c1	3.6	?	.	4	-1.3%	4	-10
CCOc1ccc(NC2C=CS(=O)(=O)C2)cc1 (stereo not given)	1.2	-5	-2%	3	-0.2%	3	5
N#Cc1ccccc1NC(=O)CNc1ccc(Cl)c(C(F)(F)F)c1	-2.7	-13	-5%	5	3.5%	-2	-21
O=C(Oc1ccc(C(=S)N2CCOCC2)cc1)c1ccc([N+](=O)[O-])cc1	0.7	3	-6%	.	-0.3%	-83*	-2

Looked up above.
Result of `COCCCNC(=O)CN1CCN(Cc2ccccc2Cl)C1=O` in D2 ag: -7.0
Result of `O=C(COC(=O)C1CCN(c2ccc(C(F)(F)F)cn2)CC1)c1ccccc1Cl` in Six1-Eya2 inh: 29
